MEX-5 binding: C. elegans MEX-5 TCR-2 RNA binding activity | Q9XUB2 | MEX-5/FITC-TCR2 RNA binding, fluorescence polarization; hits give low values | activity score (negative = inhibition of binding), % at 10 µM | hit rate 0.38% among 300,000;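 active = inhibition past about -25% in most replicates, and total fluorescence under double the plate's negative control median, limit read from the data; inconclusive = replicates evenly split on the limit, or fluorescence at least double controls; inactive = too little inhibition in most replicates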;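 note: 0% = DMSO and -100% = 5 µM competing unlabeled TCR2 RNA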
GLD-1 TGE inh: GLD-1-TGE RNA interaction inhibition (C. elegans). Q17339. purified GLD-1 + fluorescein TGE RNA, fluorescence polarization. inhibition, % at 5.96 µM. hit rate 0.44% among 320,000;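 active = percent inhibition above a per-plate cutoff, the plate mean of test compounds plus 3 SD, cut at about 30% in these data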;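 note: 0% = DMSO wells with GLD-1 and probe and 100% = wells lacking GLD-1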
Target sequence (Q17339 whole entry, looked up): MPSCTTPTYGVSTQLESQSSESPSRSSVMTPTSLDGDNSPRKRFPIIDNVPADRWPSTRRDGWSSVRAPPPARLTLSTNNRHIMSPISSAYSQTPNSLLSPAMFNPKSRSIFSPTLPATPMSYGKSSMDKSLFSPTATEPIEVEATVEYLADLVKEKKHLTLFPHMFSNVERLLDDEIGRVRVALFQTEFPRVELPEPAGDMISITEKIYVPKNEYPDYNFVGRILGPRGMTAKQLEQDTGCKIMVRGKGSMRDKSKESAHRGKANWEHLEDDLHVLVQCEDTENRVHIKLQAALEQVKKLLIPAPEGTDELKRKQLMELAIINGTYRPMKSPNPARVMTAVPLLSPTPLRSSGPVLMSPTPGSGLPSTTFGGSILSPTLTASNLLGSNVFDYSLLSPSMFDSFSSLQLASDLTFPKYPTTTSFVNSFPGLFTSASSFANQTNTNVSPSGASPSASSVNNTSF
MCL1-BIM inh: inhibitors of human MCL1 binding to BIM-BH3 peptide; hit rate 0.68% among 320,000; inhibition, % at 10.9 µM; GST-MCL1 / FITC-Bim-BH3 fluorescence polarization;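 active = inhibition above the mean inhibition of all tested compounds plus 3 SD, set per campaign, cut at about 40% in these data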;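 note: 0% = DMSO wells and 100% = unlabeled Bim-BH3 peptide control; higher means more loss of mP so more displacement of Bim peptide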
Target sequence (Q07820 whole entry, looked up): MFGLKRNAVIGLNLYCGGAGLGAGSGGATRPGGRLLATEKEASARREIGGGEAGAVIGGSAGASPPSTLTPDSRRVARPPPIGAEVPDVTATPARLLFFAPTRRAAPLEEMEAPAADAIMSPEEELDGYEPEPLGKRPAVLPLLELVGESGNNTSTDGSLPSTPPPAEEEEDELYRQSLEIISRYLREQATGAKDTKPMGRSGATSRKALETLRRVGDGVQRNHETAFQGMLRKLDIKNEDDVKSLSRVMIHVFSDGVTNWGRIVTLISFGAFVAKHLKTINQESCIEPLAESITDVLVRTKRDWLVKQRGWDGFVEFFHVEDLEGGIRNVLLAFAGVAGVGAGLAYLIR
VLA-4 inh: inhibition in a human VLA-4 binding assay | AID 2557 | VLA-4 expressing cells, ligand binding flow cytometry | hit rate 0.2% among 330,000 | inhibition, % (about 7 µM as worked out from the volumes in the protocol); in the data active = inhibition above about 50%
Fam108B inh: blocks mouse Fam108B hydrolase in RBBP9 counter-screen; recombinant Fam108B, FP-Rh probe fluorescence polarization; inhibition, % at 9.51 µM; hit rate 0.33% among 300,000; AID 1947;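 active = inhibition above the screen mean inhibition plus 3 SD, computed separately per campaign, cut at about 18% in these data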;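 note: inhibitors lower polarization as less probe binds the enzyme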
BCLXL inh: inhibitors of human Bcl-xL; GST-Bcl-xL / FITC-Bim BH3 peptide fluorescence polarization; Q07817; inhibition, % at 10.9 µM; hit rate 0.7% among 320,000;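 active = inhibition above the mean of all tested compounds plus 3 SD, cutoff set per campaign, cut at about 30% in these data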;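 note: 0% = DMSO wells and 100% = unlabeled Bim-BH3 peptide competitor; inhibitors lower millipolarization by displacing the labeled peptide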
Target sequence (Q07817 whole entry, looked up): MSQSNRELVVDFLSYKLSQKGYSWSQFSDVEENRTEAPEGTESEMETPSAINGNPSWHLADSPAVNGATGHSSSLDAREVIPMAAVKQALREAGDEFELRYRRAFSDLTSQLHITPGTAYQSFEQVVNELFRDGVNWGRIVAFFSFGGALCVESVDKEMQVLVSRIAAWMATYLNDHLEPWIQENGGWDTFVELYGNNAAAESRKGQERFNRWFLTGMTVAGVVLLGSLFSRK
Efflux pump mplx: inhibitors of Candida antifungal efflux pumps expressed in yeast | S. cerevisiae Candida pump triplex, Nile Red efflux | inhibition, % at 10 µM | hit rate 0.44% among 330,000;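 active = plate passing quality check with inhibition over a set limit, or well fluorescence over plate mean plus 4 SD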;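 note: Nile Red retained in pooled yeast measured as flow cytometry median fluorescence; 0% = buffer negative control and 100% = Enniatin B positive control; higher means more Nile Red kept so more efflux inhibition; some compounds called inactive have numbers as strong as hits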
GRK2 aptamer HTS: inhibitors of human GRK2 displacing RNA aptamer; hit rate 0.59% among 330,000; inhibition of aptamer binding, % at 10 µM; AID 488847; bead flow cytometry, FAM-aptamer displacement from GRK2;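 active = inhibition of aptamer binding above 40%, roughly 3 SD of noise, on plates passing a quality check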;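 note: median bead fluorescence of bound FAM aptamer so fluorescent compounds give negative values; no value below 0 was filed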
Starred values were filed as active, the others as inactive; ? = inconclusive; nt = not tested or not shown. A portion of the library. The share of hits here may be higher or lower than overall.

SMILES | MEX-5 binding | GLD-1 TGE inh | MCL1-BIM inh | VLA-4 inh | Fam108B inh | BCLXL inh | Efflux pump mplx | GRK2 aptamer HTS
CCOc1ccccc1NC(=O)c1cccc(N2C(=O)CCC2=O)c1 | 0.9 | 2 | 2 | -4 | -2 | -1 | 0.0 | 1
Cc1ccc(C)c(S(=O)(=O)N2CCN(C(=O)CCc3nc4ccccc4c(=O)[nH]3)CC2)c1 | -2.0 | -1 | 2 | 3 | -4 | 10 | 0.1 | 2
Cc1nnc2ccc(-c3cccc(NS(=O)(=O)c4cc(F)ccc4F)c3)nn12 | 0.0 | -4 | -2 | -10 | -2 | 5 | -0.2 | 2
Cc1c(-c2ccccc2)[nH]n2c(=O)c3c(nc12)CCCC3 | 0.2 | 1 | -6 | 10 | 2 | 2 | -0.1 | 2
COc1ccc(-c2nnc(Nc3nc4c(OC)cccc4s3)o2)c(OC)c1 | ? | 4 | 8 | 1 | 10 | 5 | 0.1 | 2
CCC(C)C(NS(=O)(=O)c1ccc(C)cc1)C(=O)NCCCN1CCOCC1 (centres undefined) | 0.4 | 5 | 5 | 0 | 0 | 0 | 0.0 | 0
CCN(CC)S(=O)(=O)c1cc(NS(=O)(=O)c2cccc(Cl)c2Cl)ccc1C | 1.7 | 4 | 7 | 7 | 0 | 4 | -0.3 | 0
Cc1cccc(C)c1Nc1nnc(SC/C(O)=C(\C#N)c2nc3ccccc3[nH]2)s1 | -0.5 | 17 | 17 | -15 | 11 | 22 | -0.3 | 0
Cc1c(/C=N/O)c2ccccn2c1C(=O)c1ccc(F)cc1 | 0.8 | 1 | 1 | -32 | 8 | 0 | 1.7* | 0
Cc1ccc(NS(=O)(=O)c2cccc(C(=O)NCCCn3ccnc3)c2)cc1 | 1.2 | -8 | -8 | 4 | 0 | 2 | -0.1 | 8
CCCCc1ccc(NS(=O)(=O)c2cccc(C(=O)N3CCCN(C)CC3)c2)cc1 | nt | 5 | -2 | 2 | nt | -1 | 0.1 | 0
O=C(NCCCN1CCCCCC1)C1CC(=O)N(CCc2ccccc2)C1 (centres undefined) | 0.7 | 1 | 4 | 0 | 2 | 0 | 0.0 | 0
CCCNc1c(NS(=O)(=O)c2cccc(C#N)c2)c(=O)oc2ccccc12 | -1.1 | 1 | 7 | -8 | 3 | 2 | 0.0 | 0
Cc1ccc2c(C)c(C(=O)N(C)C(C)c3ccncn3)oc2c1C (centres undefined) | 1.5 | 0 | 2 | 4 | 1 | 0 | -0.1 | 1
CCOc1cc(Br)c(CC(=O)O)cc1OCC | 2.2 | 7 | 3 | 14 | 3 | -1 | -0.1 | 0
N#CCc1c(C#N)c(N)nc(N2CCN(S(=O)(=O)c3ccccc3)CC2)c1C#N | 4.7 | -21 | -10 | -12 | -3 | -1 | 0.0 | 1
CCc1ccc2c(c1)c1nc(C)sc1n2CC | -2.1 | 5 | -6 | -1 | 4 | -3 | 0.1 | 3
O=C(O)/C=C/c1cn(Cc2ccccc2)nc1-c1cccnc1 | 1.0 | 2 | 4 | -4 | 3 | 0 | -0.1 | 1
CCOc1ccc(Br)cc1S(=O)(=O)Nc1ccc(Cl)c(S(=O)(=O)N(C)C)c1 | 1.4 | 9 | 6 | 7 | 7 | 4 | -1.1 | 0
NS(=O)(=O)c1ccc(NC(=O)COC(=O)CC2Sc3ccccc3NC2=O)cc1 (centres undefined) | nt | 3 | -8 | 6 | nt | -3 | 0.1 | 3

Quoted at random: 2 entries already listed
SMILES | MEX-5 binding | GLD-1 TGE inh | MCL1-BIM inh | VLA-4 inh | Fam108B inh | BCLXL inh | Efflux pump mplx | GRK2 aptamer HTS
CCCCc1ccc(NS(=O)(=O)c2cccc(C(=O)N3CCCN(C)CC3)c2)cc1 | nt | 5 | -2 | 2 | nt | -1 | 0.1 | 0
Cc1ccc2c(C)c(C(=O)N(C)C(C)c3ccncn3)oc2c1C (centres undefined) | 1.5 | 0 | 2 | 4 | 1 | 0 | -0.1 | 1

(more compounds)
SMILES | MEX-5 binding | GLD-1 TGE inh | MCL1-BIM inh | VLA-4 inh | Fam108B inh | BCLXL inh | Efflux pump mplx | GRK2 aptamer HTS
CCOC(=O)N1CCN(C(=O)c2cc(Cl)c(Cl)cc2C(=O)O)CC1 | -0.6 | 3 | -6 | -6 | 3 | 1 | 0.0 | 4
CCOC(=O)N1CCN(C(=O)c2ccc3c(c2)NC(=O)/C(=C/c2ccccc2)S3)CC1 | -13 | 3 | 18 | 0 | -3 | 8 | 0.0 | 3
OC(CN1CCc2ccccc2C1)c1ccccc1 (centres undefined) | -1.2 | 8 | 7 | 1 | 5 | 4 | 0.0 | 1
Cc1c(C(=O)OCC(=O)N(C)Cc2ccc(Cl)cc2)oc2ccccc12 | nt | -2 | 9 | 17 | nt | 4 | -0.2 | 2
CC(C)c1ccc(-c2c(NCCc3ccccc3)c(=O)c2=O)cc1 | -0.2 | 1 | -5 | 6 | -3 | -3 | -0.1 | 0
COc1ccc(C(=O)c2c(NC(C)=O)sc3c2CCN(C(=O)OC(C)(C)C)C3)cc1 | 1.5 | -6 | -2 | 5 | -1 | 1 | 0.1 | 0
CCCCN1CCCCC1C(=O)Nc1c(C)cc(C)cc1C (centres undefined) | -1.3 | 15 | -6 | 8 | -2 | 5 | 0.0 | 0
CCOc1ccc2nc(NCCNC(=S)NCCCN(C)C)c(C#N)cc2c1 | -0.9 | 6 | 8 | 4 | 1 | 12 | -0.1 | 1
O=C(NCCc1ccccc1)C1CCN(S(=O)(=O)c2cccs2)CC1 | 1.0 | 1 | 5 | 0 | 1 | 2 | -0.1 | 0
CCCC(C)C(=O)Nc1nc(C)c(-c2csc(Nc3cc(OC)ccc3OC)n2)s1 (centres undefined) | 2.6 | 4 | -6 | 24 | 12 | -2 | 0.1 | 2
Cc1cc(C)cc(C(=O)N2CC(C)SC2=Nc2cccc(S(=O)(=O)N(C)C)c2)c1 (centres undefined) | 2.1 | -3 | 5 | 10 | 7 | 4 | 0.2 | 2
COC(=O)c1ccc(NC(=O)Nc2ccc3c(c2)OCO3)cc1 | 0.5 | 6 | 8 | -10 | 3 | 1 | 0.0 | 0
O=C(NCCc1c[nH]c2ccccc12)C1CCN(S(=O)(=O)c2ccc(F)cc2)CC1 | -0.8 | -3 | 0 | 28 | -1 | 3 | 0.0 | 0
CC(NC(=O)COC(=O)CCc1ccccc1)c1ccccc1 (centres undefined) | 0.0 | 3 | 1 | -7 | 0 | -6 | 0.6 | 0
O=C(CCNC(=O)C1CCN(S(=O)(=O)c2ccc(F)cc2)CC1)NCc1ccc(Cl)cc1 | -0.7 | 7 | -5 | 3 | -3 | 5 | 0.1 | 0
CC(=O)Oc1ccc2oc(-c3ccccc3)c(C(N)=O)c2c1 | 0.4 | 6 | 3 | -2 | -3 | -2 | -0.1 | 1
COc1ccc(Br)cc1/C=N/n1c(-c2ccccc2)n[nH]c1=S | -4.0 | -1 | -10 | -2 | -2 | -32 | 0.0 | 0
COc1ccc(Br)cc1CN1CCN(C(=O)c2cccc(OC)c2OC)CC1 | -0.9 | -2 | 1 | 8 | 3 | 2 | 0.1 | 0
COc1ccc(S(=O)(=O)Nc2ccccc2C(=O)N2CCCC2)cc1C | 1.5 | -3 | -9 | 20 | 6 | -2 | 0.2 | 0
O=C1CN(C(=O)c2ccccc2[N+](=O)[O-])C(c2ccccc2)c2cc(Br)ccc2N1 (centres undefined) | -3.6 | -4 | -4 | 11 | -3 | 1 | 0.1 | 2
CC(C)C(C(=O)N1CCOCC1)N1C(=O)c2ccccc2C1=O (centres undefined) | 1.0 | 0 | 6 | 6 | 3 | 2 | 0.0 | 0
CCOC(=O)C1CCCN(c2nc3ccccc3nc2C(C#N)C(=O)NCc2ccccc2)C1 (centres undefined) | -15 | 30 | 16 | -38 | -3 | 5 | 0.1 | 0
Cc1ccc(S(=O)(=O)Nc2cccc(-c3ccc(N4CCCCCC4)nn3)c2)cc1 | -2.3 | 2 | -3 | 4 | -17 | 5 | -0.5 | 2
COc1ccc(S(=O)(=O)N2CCCCC2)cc1NC(=O)CNc1ccccc1C(C)=O | nt | -2 | -6 | -4 | nt | -4 | -0.1 | 0
CCCCc1nc(C(N)=O)c2[nH]c(=O)n(-c3ccc(OCC)cc3)c2n1 | 0.4 | 4 | 4 | -17 | 0 | 2 | -0.3 | 0
Cc1ccc([N+](=O)[O-])c(-c2n[nH]c(=S)n2-c2cccc(Cl)c2)c1 | 2.8 | -9 | -11 | -2 | 8 | -22 | -0.1 | 0
Cc1ccc(Cn2nnc3c(=O)[nH]c(C4CCN(S(=O)(=O)c5ccc(C)cc5)CC4)nc32)cc1 | nt | 11 | 2 | 8 | -2 | 4 | 0.1 | 2
O=C(Nc1ccc(NC(=O)c2ccccc2F)cc1)c1cccs1 | nt | -2 | 7 | -4 | nt | 16 | -0.1 | 0
COc1cc2c(cc1OC)CN(CC(=O)Nc1ccc(C)c(S(=O)(=O)N3CCOCC3)c1)CC2 | -2.8 | 7 | 8 | 11 | -1 | 4 | 0.0 | 0
O=C(Nc1ccc2oc(=O)ccc2c1)c1ccc(-c2cccc(Cl)c2)o1 | -2.9 | 1 | -11 | 2 | -64 | -10 | 0.0 | 3
COc1c(C)cc(C(=O)C2CCCN(C(=O)c3ccc4cc[nH]c4c3)C2)cc1C (centres undefined) | 1.3 | -2 | -2 | -2 | -1 | -4 | 0.1 | 1
CC(C)(C)NC(=O)COC(=O)c1c2c(nc3ccccc13)CCC2 | 0.9 | 4 | 16 | -16 | 8 | 17 | -0.1 | 2
CC(C)(C)c1ccc(C(=O)OCC(=O)Nc2sc3c(c2C#N)CCC3)cc1 | -0.2 | -5 | 1 | -5 | 3 | 1 | 0.4 | 5
COc1ccccc1C(=O)OCC(=O)Nc1cc(S(=O)(=O)N2CCOCC2)ccc1N1CCCC1 | 0.4 | 1 | 1 | -3 | -1 | 8 | 0.1 | 0
CC(C)(C)OC(=O)N1CCC(c2cc(=O)n3[nH]cc(C(=O)NC4CCCC4)c3n2)CC1 | 0.4 | 6 | 9 | 34 | 4 | 0 | 0.3 | 0
CC(C)[C@H](NC(=O)C1CCN(S(=O)(=O)c2ccc(F)cc2)CC1)C(=O)N1CCCC1 | 0.9 | 2 | 2 | -1 | 8 | 2 | -0.1 | 1
Cc1ccc(S(=O)(=O)CC(=O)c2cc3cccc(C)c3oc2=O)cc1 | 1.2 | 4 | 4 | 5 | 3 | 3 | -0.1 | 0
O=C(c1ccccc1Sc1ccccc1[N+](=O)[O-])N1CCCCC1 | 2.1 | 5 | 2 | -6 | 1 | 4 | 0.0 | 0
NC(=O)COC(=O)c1c2c(nc3ccccc13)CCC2 | -4.0 | 15 | 29 | -3 | 1 | 26 | 0.0 | 0
Cc1csc(=O)n1CC(=O)OCC(=O)NC(C)c1ccc(F)cc1 (centres undefined) | nt | -3 | 3 | -1 | nt | 4 | 0.0 | 0
COc1cccc(-c2csc(N3CCN(C(=O)Nc4ccc(F)cc4)CC3)n2)c1 | -1.9 | 4 | 1 | 1 | 4 | 4 | 0.0 | 0
Cc1ccc(NC(=S)Nc2ccccn2)cc1C | -1.1 | 7 | 12 | 1 | 6 | 11 | -0.2 | 0
CCCNC(=O)C1(S(=O)(=O)c2ccccc2)CC=CC1 | 3.4 | 1 | 0 | 9 | 2 | 5 | -0.1 | 0
CN(Cc1cccs1)C(=O)C1CCN(S(=O)(=O)c2ccccc2)CC1 | nt | 3 | -1 | 4 | nt | 1 | 0.1 | 0
CCSc1ccccc1C(=O)N1CCN(Cc2ccc3c(c2)OCO3)CC1 | -0.5 | 7 | 9 | 8 | -4 | 5 | 0.2 | 1
COc1ccc(/C=N/NC(=O)c2ccc(NS(=O)(=O)c3cccs3)cc2)cc1 | nt | 4 | 5 | 1 | nt | 3 | 0.2 | 0
CC(C)NC(=O)c1c2c(nc3ccccc13)CCCC2 | -0.5 | 3 | 7 | -11 | 3 | 3 | -0.1 | 2

Bioassay records as filed in PubChem.
